NPYLR7 agonist = mosquito NPYLR7 agonism; hit rate 0.15% among 270,000; activation, % at 10 µM; AID 1259423; HEK293T NPYLR7/Galpha15, GCaMP6s calcium fluorescence; in the data active = activation above about 40%;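 note: 0% = vehicle and 100% = reference agonist at the receptor; some compounds past the cut are filed as inactive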
NPYLR7 agonist max-min = also measured in NPYLR7 agonist; calls as there; activation, %; measured here: Max-Min RFU normalised activation; some inactives read as strong as hits;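 span of the calcium signal over five minutes; 0% = vehicle and 100% = native peptide agonist; compound fluorescence can raise it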
* marks the source's active call; other numbers are inactive results. This is a subset, so the mix of outcomes need not match the whole.

canonical_smiles	NPYLR7 agonist	NPYLR7 agonist max-min
COc1ccc(-n2c(SCCCCC(=O)N3CCN(C(=O)CC(C)CC(C)(C)C)C(C)C3)nnc2-c2ccccc2)cc1 (configuration not stated)	-9	-2
COc1cccc(CN2CCCn3cccc3C2c2cccc([N+](=O)[O-])c2)c1OC (configuration not stated)	-1	3
CN1CCC2(CCCN(C(=O)c3cc(=O)c4ccccc4[nH]3)CC2)CC1	8	5
Fc1cccc(-c2nc3ccccn3c2NCc2ccccc2)c1	-2	-2
CCCCN(CC(=O)Nc1cc(-c2ccccc2)nn1-c1ccc(C)cc1)C(=O)Nc1cccc(C)c1	1	7
O=c1oc(-c2ccccc2F)nc2ccccc12	4	6
O=c1[nH]ccc2c1nnc1ccnn12	6	4
CC(Oc1ccc(F)cc1)C(=O)OCc1cc(=O)n(C)c(=O)n1C (configuration not stated)	14	17
CC(C)c1ccc(C2=NC(C)(CC(=O)NCc3cccc(O)c3)ON2C)cc1 (configuration not stated)	6	3
Cc1cc(OCc2ccc(C(=O)Nc3cccnc3Cl)o2)ccc1Cl	6	6
C=CCNc1nc(C2(C)CC3(CC(C)(C)OC3=O)C(=O)O2)cs1 (configuration not stated)	1	3
CC(C)(C)c1ccc(NC(=O)c2ccc(-n3nc(-c4ccc(Cl)c(Cl)c4)cc3N)cc2)cc1	-1	-5
Cc1ccc(-c2nc(C=Nc3cccc(Cl)c3C)c(O)o2)cc1	-4	-12
COCCC1CCCCN1C(=O)c1cc(C2CC2)[nH]n1 (configuration not stated)	9	8
COCCN(CC(=O)N(CCc1c[nH]c2ccccc12)Cc1ccc(F)cc1)C(=O)Nc1cccc(C(F)(F)F)c1	-4	8
O=C(c1cn(-c2ccccc2)nn1)N1CCNC(c2ccccc2)C1 (configuration not stated)	-6	-14
Cc1nn(C)c(C)c1C=Cc1ccc2ccccc2n1	7	10
CC(=O)NCCNC(=O)CN1CCCC1c1c(C)nn(C)c1Cl (configuration not stated)	-1	-1
O=c1oc2ccc([N+](=O)[O-])cc2cc1-c1nnc(Nc2ccc(Oc3ccc4ccccc4c3Cl)c(Cl)c2)s1	-5	1
O=C(Nc1ccccc1F)N1CCN(CC2CCCO2)CC1 (configuration not stated)	0	-2

Filtered by structure: those above with fluorine (5)
canonical_smiles	NPYLR7 agonist	NPYLR7 agonist max-min
Fc1cccc(-c2nc3ccccn3c2NCc2ccccc2)c1	-2	-2
O=c1oc(-c2ccccc2F)nc2ccccc12	4	6
CC(Oc1ccc(F)cc1)C(=O)OCc1cc(=O)n(C)c(=O)n1C (configuration not stated)	14	17
COCCN(CC(=O)N(CCc1c[nH]c2ccccc12)Cc1ccc(F)cc1)C(=O)Nc1cccc(C(F)(F)F)c1	-4	8
O=C(Nc1ccccc1F)N1CCN(CC2CCCO2)CC1 (configuration not stated)	0	-2

Additional entries.
canonical_smiles	NPYLR7 agonist	NPYLR7 agonist max-min
O=C1C(Cl)=C(N2CCOCC2)C(=O)c2ccc(S(=O)(=O)N3CCOCC3)cc21	1	2
Cc1c(N)c(-c2ccsc2)nn1C(=O)OC(C)(C)C	-1	-5
Cc1nc2ccccn2c(=O)c1NC(=O)c1ccc(F)c(F)c1	-6	-5
CC1CCCCN1C(=O)c1ccc(Cl)c(S(=O)(=O)NCC2CCCO2)c1 (configuration not stated)	0	0
CN(C)C(=O)c1cccc(S(=O)(=O)Nc2ccc(F)cc2OCCO)c1	8	2
CC(=O)Oc1c(-c2ccc(NC(=O)c3ccc(C(F)(F)F)cc3)cc2)c(-c2cccc(N(C)C)c2)nn1-c1cccc(C)c1	3	10
Cc1cccc2sc(C(=O)NCC(F)(F)C(F)(F)F)c(Cl)c12	-4	0
CC1=Nc2c(c(=O)n(C)c(=O)n2C)C(c2ccc([N+](=O)[O-])cc2)C1C(=O)OCC(C)C (configuration not stated)	-5	2
Cc1ccccc1Nc1oc2c(c1-c1ccc(Br)cc1)c(=O)n(C)c(=O)n2C	-1	-4
CCc1cccc2c(C(CC(=O)NCCN(C)C)c3ccc(C)cc3)c[nH]c12 (configuration not stated)	-7	-1

Given field by field: 3 of the compounds above.
Structure: Cc1ccccc1Nc1oc2c(c1-c1ccc(Br)cc1)c(=O)n(C)c(=O)n2C
  NPYLR7 agonist: -1	NPYLR7 agonist max-min: -4

Structure: Cc1cccc2sc(C(=O)NCC(F)(F)C(F)(F)F)c(Cl)c12
  NPYLR7 agonist: -4	NPYLR7 agonist max-min: 0

Structure: CN(C)C(=O)c1cccc(S(=O)(=O)Nc2ccc(F)cc2OCCO)c1
  NPYLR7 agonist: 8	NPYLR7 agonist max-min: 2

The results go on:
canonical_smiles	NPYLR7 agonist	NPYLR7 agonist max-min
CN(C)c1nc(Oc2ccc(OCc3ccccc3)nn2)nc(N(C)C)n1	-1	-2
CCC(CC)C(=O)N(Cc1cc(NC(=O)c2ccccc2Cl)ccc1N(C)C)C1CC1	4	4
CCCCCCNC(=O)CCN(CCCC)c1nc(Cc2ccc(C)cc2)ns1	-3	3
CCc1ccc(/C=C/C(=O)N(C)CC(=O)NC(C)C)cc1	-1	1
COc1ccccc1NC(=O)c1nnn(CC(=O)Nc2cccc(C)c2)c1N	-8	-13
CC(C)c1n[nH]c2c1CN(Cc1cc3n(n1)CCNC3)CC2	-2	-3
C=Cc1ccc(CC2(C)C(=O)Nc3c(Cl)ccc(Cl)c32)cc1 (configuration not stated)	0	-3
Cc1cc(O)c(C(c2ccncc2)N2CCN(C)CC2)c(=O)n1Cc1ccccc1 (configuration not stated)	5	2
CCc1sc(=O)n(Cc2nnc(C)o2)c1-c1ccccc1	0	-2
CCCCNC(=O)c1cc(-c2ccccc2)nc2cc(C(C)(C)C)nn12	-1	4
CC1(C)CCC(C)(C)c2cc(NC(=O)Nc3nc(COCCO)cs3)ccc21	14	12
CCOC(=O)c1nc2cc(C)c(C)cc2nc1N1CCN(C(=O)c2ccc(C(F)(F)F)cc2F)CC1	4	2
Cc1nc(N2CCN(c3ccccc3)CC2)nc2c1C(=O)CC(C)C2 (configuration not stated)	2	-2
O=C(CCc1ccc(-c2ccccc2F)o1)N1CCN(C(=O)C2CC2)CC1	0	-3
Cc1cc([N+](=O)[O-])nn1CC(=O)Nc1cc(Oc2cccc(C(F)(F)F)c2)cc([N+](=O)[O-])c1	0	0
CCn1cc2nc(OC)c(CNC(=O)c3cc(C(C)C)no3)cc2c1O	9	0
O=C(c1cc(=O)c2ccccc2o1)N1[C@H]2CCNC[C@@H]1CC2	2	0
CCCCC(=O)Nc1ccc(NC(=O)Cc2cnc[nH]2)cc1	24	10
COc1ccccc1NC(=O)N(CC(=O)N(CCc1c[nH]c2ccccc12)Cc1ccc(F)cc1)CC(C)C	9	18
CSCCC(=O)N1CCOC(CC2CCCCC2)C1 (configuration not stated)	4	2

Next compounds follow:
Results follow in this order: NPYLR7 agonist, NPYLR7 agonist max-min
> C=CCc1ccccc1NC(C(=O)OCC)c1ccccc1 (configuration not stated)
 : 3, 0
> Cc1ccc(F)c(Oc2cc(N3CCN(C(=O)Cc4ccccc4)CC3)ncn2)c1
 : 4, 3
> Cc1cc(CN(C)C(C)C(=O)Nc2ncccn2)no1 (configuration not stated)
 : -1, 34
> Cc1ccc(I)c(OCC(=O)Nc2ccc(C(=O)N(C)C)cc2)c1
 : 4, 1
> Cc1cn2c3c(=O)n(CCN4CCOCC4)c(=O)n(C)c3nc2n1C(C)C
 : -5, -7
> Cc1ccc(C)c(N(C(C)C)S(=O)(=O)c2cn(C)c(C)n2)c1
 : -8, -9
> CN1CCN(C(CNC(=O)CCc2ccccc2)c2ccsc2)CC1 (configuration not stated)
 : 18, 6
> Cc1ccc(C)c(-n2nc(C)cc2NC(=O)C2CC2C)c1 (configuration not stated)
 : 4, 2
> Cc1cc(C(=O)N(CCCN(C)C)c2nc3c(Cl)cccc3s2)no1
 : 0, 0
> COC(=O)[C@H](CC(C)C)NC(=O)c1oc2c(F)cccc2c1C
 : -2, -7
> O=C(Nc1ccc(F)c(Cl)c1)c1ccc(NC(=O)C2CC2)cc1
 : -1, -6
> CCN(CC)C(=O)Cn1cc(C(=O)N2CCC(c3cccc(Cl)c3)C2)nn1 (configuration not stated)
 : 7, 4
> COc1ccc(Oc2cncnc2-c2ccc(OCc3ccccc3)cc2O)cc1
 : -3, -7
> CCOc1ccc(C(=O)N2CCN(c3ncccn3)CC2)cc1
 : -2, -5
> O=C(N[C@H]1CN[C@H](C(=O)NCCc2c[nH]c3ccccc23)C1)c1cccc(F)c1
 : 2, 1
> CCOc1cc(C=C(C#N)C(=O)C(C)(C)C)ccc1OC
 : -2, -2
> CCc1cc(N(C)Cc2ccccc2)nc(SCc2ccc(C(=O)NCCc3ccccn3)o2)n1
 : 5, 16
> Cc1ccccc1NC(=O)c1ccc2nc(-c3ccccc3)c(-c3ccccc3)nc2c1
 : -9, -14
> Cc1ccccc1CCN1CCC(CN(C(=O)c2noc3c2CCCC3)C2CCCC2)CC1
 : 0, -6
> C/C=C/COC(=O)C1=C(C)NC(=O)NC1c1ccccc1F (configuration not stated)
 : 0, -2

Quoted from the listing.
CC(Oc1ccc(F)cc1)C(=O)OCc1cc(=O)n(C)c(=O)n1C (configuration not stated) in NPYLR7 agonist max-min: 17
Cc1nc(N2CCN(c3ccccc3)CC2)nc2c1C(=O)CC(C)C2 (configuration not stated) in NPYLR7 agonist max-min: -2

Going on with the list:
Results follow in this order: NPYLR7 agonist, NPYLR7 agonist max-min
> CNS(=O)(=O)c1ccc(NCc2cccc3cccnc23)nc1
 : 5, 1
> CNc1nc2cnc(Nc3cccc(N(C)C)c3)cc2n1-c1cccc(C(F)(F)F)c1
 : 3, -7
> COCCN(CC(=O)Nc1cc(C(C)(C)C)nn1-c1ccc(Cl)c(Cl)c1)C(=O)c1ccc(F)cc1
 : -3, 0
> COc1cccc(-n2c(-c3ccc(Cl)cc3)cc(C(=O)NC(C)c3ccccc3)c2C)c1 (configuration not stated)
 : 0, 6
> CC(=O)OC(C)(C)C(=O)N1CCN(c2nc3nccc(-c4cccc(C)c4)n3n2)CC1
 : 0, -1
> CCCNC(=O)C1(C)CCN(Cc2ccc(-n3ccnc3)cc2)C1 (configuration not stated)
 : 2, -1
> Cc1nc(NCc2nncn2CCc2ccccc2)c2cnn(C)c2n1
 : 1, 2
> CC1CCc2c(sc3ncnc(NCCN4CCOCC4)c23)C1 (configuration not stated)
 : 7, 5
> Cc1c(=O)n(OCc2ccccc2Br)c2ccccc2[n+]1[O-]
 : -1, -3
> COc1ccc(CNC(=O)Cn2nc([N+](=O)[O-])c(Br)c2C)cc1
 : -3, -5
> COc1ccccc1NC(=O)N(Cc1cccc(C(F)(F)F)c1)CC1CC(c2cccc(F)c2)=NO1 (configuration not stated)
 : -6, -3
> COc1ccccc1OCC1CN(C(=O)Cc2c(F)ccc(C)c2F)CCO1 (configuration not stated)
 : 24, 28
> Cc1cc(COC(=O)c2cc3c(s2)CCC(C)C3)no1 (configuration not stated)
 : 1, 0
> O=C(Nc1nccs1)c1cn(-c2ccccc2)nc1-c1ccc(Br)cc1
 : -1, -4
> CCOc1cc(C2C(C(=O)OCCOc3ccccc3)=C(C)NC3=C2C(=O)CC(c2ccc(Cl)cc2)C3)ccc1O (configuration not stated)
 : 1, 8
> Cc1cccnc1CN1CCN(Cc2cc3ccccc3o2)CC1
 : 1, 3
> Nc1c2c(-c3cccc(F)c3F)nc(NCCN3CCOCC3)nc2nn1-c1ccccc1
 : 6, 4
> CCC(C(=O)NCc1ccco1)n1c(=O)n(-c2ccccc2F)c(=O)c2ccc(Cl)cc21 (configuration not stated)
 : -2, 0
> CN(C)CCNC(=O)C(=Cc1ccc(-c2cccc([N+](=O)[O-])c2)o1)NC(=O)c1ccccc1
 : 0, -1
> Cc1cc(CNC(=O)C2CCCN(C3CCN(C(=O)C4CC4)CC3)C2)n[nH]1 (configuration not stated)
 : 5, -5
> C=CCn1c2ccccc2n2c(C(=O)c3ccc(Br)s3)c(C)nc12
 : -14, -17
> Cc1ccc(C(NC(=O)C2CCN(CCc3c[nH]c4ccccc34)CC2)c2ccccn2)cc1 (configuration not stated)
 : -2, 0
> COc1ccc(CN(C(=O)OC(C)(C)C)C2CCC(C(=O)N3CCOC(COc4ccc(F)cc4)C3)CC2)cc1C (configuration not stated)
 : 4, 0
> CCOC(=O)c1ccc2c(c1)nc(SCc1c(F)cccc1F)n2CCc1ccc(OC)cc1
 : 3, -1
> O=C(NCC(=O)N1CCN(c2cccc(Cl)c2)CC1)c1ccco1
 : -8, -10
> Cn1c(O)c(N=NC(=O)c2ccc3ccccc3n2)c2ccccc21
 : -5, -7
> Cc1c(C)n2c3c(=O)n(C)c(=O)n(C)c3nc2n1-c1ccc(S(N)(=O)=O)cc1
 : 1, 4
> CC(NC(=O)c1csc(-c2ccc(Cl)cc2)n1)C(=O)N(C)C (configuration not stated)
 : 8, 6
> O=C(CCc1ccco1)N1CCN(S(=O)(=O)c2ccc(Cl)c(Cl)c2)CC1
 : 15, 5
> COc1ccc(C(=O)N(Cc2cc(N)ccc2N(C)C)CC2CCCO2)cc1 (configuration not stated)
 : 4, 1
> c1ccc(-c2nc[nH]c2-c2cccn2-c2cccnc2)cc1
 : -2, -5
> Cc1ccc(CN(C)C(=O)CCc2c(C)nc3nc(C(F)(F)F)nn3c2C)c(C)c1
 : 0, 7
> NC(=O)c1nc(-c2ccc([N+](=O)[O-])cc2)nc2c1[nH]c(=O)n2-c1ccc(Cl)cc1
 : -4, 3
> C#CCOCC(O)CN(CC=C)CC(=O)N1CCc2sccc2C1COc1cccc(C)c1 (configuration not stated)
 : -2, 10
> Cc1nc(CN(C)Cc2cc(C)c(C)cc2C)no1
 : -2, -3
> CCN(CC)c1ccc(/C=N\NC(=O)COc2nc(C)c(Br)c(COC)c2C#N)cc1
 : -9, -13
> CCOC(=O)c1c(NC(=O)c2ccc([N+](=O)[O-])cc2)sc(C(=O)Nc2ccccc2F)c1C
 : -6, -12

Screening results as filed in PubChem.
